Bioassay records from PubChem BioAssay.
KCNQ2 block: KCNQ2 potassium channel inhibitors, primary screen, cell-based, CHO-K1, FluxOR thallium flux, B-score (AID 2156); hit rate 1.1% among 310,000; 20 min; active compounds read low; only compounds with negative scores are shown here; some inactives read as strong as hits; B-score at 10 µM; Potassium voltage-gated channel subfamily KQT member 2 (Rattus norvegicus), O88943;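 active = fluorescence ratio B-score at most minus 3 library SDs, with starting brightness B-score within 2 library SDs, cut at about -5.5 in these data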
Target sequence (O88943 whole entry, looked up): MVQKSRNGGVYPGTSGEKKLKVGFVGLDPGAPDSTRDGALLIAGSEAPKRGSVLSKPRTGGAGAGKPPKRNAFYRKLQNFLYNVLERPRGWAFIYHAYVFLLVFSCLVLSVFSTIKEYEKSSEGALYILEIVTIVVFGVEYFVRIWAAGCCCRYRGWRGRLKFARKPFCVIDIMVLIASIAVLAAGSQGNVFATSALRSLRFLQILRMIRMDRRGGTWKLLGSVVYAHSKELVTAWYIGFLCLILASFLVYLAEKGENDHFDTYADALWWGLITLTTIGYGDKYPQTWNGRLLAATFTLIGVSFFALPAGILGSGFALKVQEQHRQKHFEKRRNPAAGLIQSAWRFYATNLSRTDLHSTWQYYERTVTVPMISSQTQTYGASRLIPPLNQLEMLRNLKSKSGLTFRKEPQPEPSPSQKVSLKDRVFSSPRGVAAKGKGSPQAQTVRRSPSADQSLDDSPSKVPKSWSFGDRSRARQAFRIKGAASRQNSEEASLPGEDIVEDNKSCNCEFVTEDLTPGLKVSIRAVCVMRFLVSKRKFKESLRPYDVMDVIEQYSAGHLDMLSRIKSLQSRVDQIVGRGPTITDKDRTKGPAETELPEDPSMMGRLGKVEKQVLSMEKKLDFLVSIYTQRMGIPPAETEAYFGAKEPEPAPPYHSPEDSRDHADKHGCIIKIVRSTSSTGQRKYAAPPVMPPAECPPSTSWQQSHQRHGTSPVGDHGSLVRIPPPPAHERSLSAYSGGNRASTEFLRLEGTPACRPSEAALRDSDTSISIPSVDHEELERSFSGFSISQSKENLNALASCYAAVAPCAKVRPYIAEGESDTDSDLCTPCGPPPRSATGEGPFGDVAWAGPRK
KCNQ2 block baseline: further read-out of KCNQ2 block, marked with its call; B-score; measured here: initial fluorescence intensity artifact check;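 brightness before thallium and not channel activity; 0 = typical well and far values either way flag optical interference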
The depositor's hits bear a star; i = inactive. An excerpt, so the mix of outcomes need not match the whole.

Structure | KCNQ2 block | KCNQ2 block baseline
CC(C)(C)NC(=O)C(=O)NCc1ccccn1 | i | -1.21
CC(=O)Nc1ccc(N/C=C(\C=O)c2nc3ccccc3o2)cc1 | i | -1.55
Clc1ccc(COc2cccc(CNCc3ccncc3)c2)cc1 | i | 0.99
COc1ccc(OC)c(C(c2nnnn2CCc2ccccc2)N2CCN(c3ccccc3)CC2)c1 (stereo unspecified) | i | -0.67
O=C(Nc1c(C(=O)O)[nH]c2ccccc12)NC1CCCCC1 | i | 0.69
Nc1c(Cl)cc(C2=NCCn3nc4ccccc4c32)cc1Cl | i | -1.61
C(=N\N1CCN(C(c2ccccc2)c2ccccc2)CC1)/c1ccc2c(c1)OCO2 | i | 2.32
Cc1c(C)n(C(=O)CSc2nccn2C)c2ccccc12 | i | 0.22

The list goes on.
Structure | KCNQ2 block | KCNQ2 block baseline
Cc1ccc(/C=C(/NC(=O)c2ccccc2)C(=O)NCCc2c[nH]c3ccccc23)o1 | i | 0.55
Cc1cc2c(cc1S(=O)(=O)CCC(=O)NC1CCC(C)CC1)OCC(=O)N2 (stereo unspecified) | i | -2.48
COC(=O)c1ccc(Oc2ccc3nncn3n2)cc1 | i | -0.01
COc1ccc(NC(=O)CN(C)S(=O)(=O)c2ccc3c(c2)CCC(=O)N3)c(OC)c1 | i | 0.07
COc1ccc(C(=O)NCC(=O)OCc2ccc([N+](=O)[O-])cc2)cc1 | i | -1.38
CCOC(=O)/C(C#N)=N/Nc1ccccc1OC | i | 1.86
Clc1cccc2sc(N3CCCC3)nc12 | i | -1.11
Fc1ccc(-c2nnsc2Sc2ccccn2)cc1 | i | 0.73

Following part
Structure | KCNQ2 block | KCNQ2 block baseline
CCCCNS(=O)(=O)c1ccc(NC(=O)C2c3ccccc3Oc3ccccc32)cc1 | i | -0.72
CCC(=O)Nc1c(-c2ccccc2Cl)c(=O)c2ccccc2n1CC | i | -0.42
O=[N+]([O-])c1ccc(Oc2c(F)c(F)nc(N3CCCC3)c2F)cc1 | i | 0.11
CC(C)(C)NC(=O)NC(=O)CSc1n[nH]c(-c2ccccc2Br)n1 | i | 1.82
C#CCNC(=O)C1=C[C@H](C2CCCCC2)[C@@H](CCCO)[C@H](OCC)O1 | i | 0.39
CCN(CC)c1ccc(NC(=O)Cn2c(C(C)NC(=O)c3ccccc3)nc3ccccc32)cc1 (stereo unspecified) | i | -1.37
CCOC(=O)C1=C(C)NC(C)=C(C(=O)OCC)C1C(=O)OCC(=O)N1CCc2ccccc2C1 | i | -1.87
Cc1cc(=O)n2c(C(=O)Nc3ccc(C(=O)OC(C)C)cc3)c(C(=O)Nc3ccccc3)sc2n1 | i | -2.3

Going on with the list.
Structure | KCNQ2 block | KCNQ2 block baseline
O=C(Oc1c(-c2ccccc2Cl)oc2ccccc2c1=O)c1ccc(Cl)cc1 | -6.94* | 0.55*
COc1ccc(-c2nc(SCC(=O)Nc3nccs3)c(-c3ccc(Cl)cc3)[nH]2)cc1 | i | 0.78
CCOC(=O)C1=C(N)Oc2ccc3ccccc3c2C1c1ccc(O)c(OC)c1 (stereo unspecified) | i | -2.19
Cc1ccc(-n2c(SCC(=O)OC(C)C)nnc2-c2ccco2)cc1 | i | 4.47
CCOC(=O)C1CCN(C(=O)COc2ccc(S(=O)(=O)NC(C)C)cc2)CC1 | i | 1.44
COC(=O)c1c(-c2ccccc2)csc1NC(=O)c1c(-c2ccccc2)noc1C | i | -1.12
COc1c(Br)cc(Br)cc1/C=N/NC(=O)c1ccncc1 | i | 0.68
O=C(N/N=C/c1ccc(N2CCOCC2)c([N+](=O)[O-])c1)c1ccc(F)cc1 | i | -0.27

Carrying on:
Structure | KCNQ2 block | KCNQ2 block baseline
Cc1nc(=O)c(-c2ccccc2)c(C)n1-c1ccccc1 | i | 0.02
C=CCC(CC=C)(C(=O)O)c1ccccc1 | i | 0.41
COc1ccc(CC(=O)NCc2ccccn2)cc1OC | i | -0.18
O=C(NCC(c1cccnc1)N1CCN(c2ccccc2)CC1)OCc1ccccc1 (stereo unspecified) | i | 2.02
Cc1cc(N/C(=N\S(=O)(=O)c2ccc(Cl)cc2)c2ccc(F)cc2)no1 | i | 0.23
Cc1ccc(C)c(Oc2cc(F)nc(N)n2)c1 | i | -1.31
Cc1ccc(COc2ccc(C(=O)NN)cc2)cc1 | i | -0.74
Cc1ccc(CNC(=O)CCSCc2ccccc2F)cc1 | i | 0.94

More structures
Structure | KCNQ2 block | KCNQ2 block baseline
O=C(Nc1ccccc1Cl)C1CCN(Cc2cnn(-c3ccccc3)c2-n2cccc2)CC1 | i | 0.88
CCOC(=O)N1CCC(NC(=O)CC2C(=O)NCCN2Cc2cccc(F)c2F)CC1 (stereo unspecified) | i | 0.06
Cc1cccc(CSc2ccc(-c3cccs3)nn2)c1 | i | -1.94
O=C(NCCc1cccs1)C(c1ccccc1)c1ccccc1 | i | -0.05
CCOC(=O)C1CCN(Cc2cccc(Oc3ccc(Cl)cc3)c2)CC1 | i | -0.49
Nc1c(NCc2ccccc2)c2ccccc2oc1=O | i | 0.08
O=C(Nc1ccc(F)c(Cl)c1)c1nsc(Cl)c1Cl | i | 0.12
O=C(COc1ccc(F)cc1)Nc1nnc(C2CCCCC2)s1 | i | 0.8

Continuation:
Structure | KCNQ2 block | KCNQ2 block baseline
Clc1ccc(-c2csc(Nc3ccccc3)[n+]2Cc2ccco2)c(Cl)c1 | i | 1.52
O=C1NCC(COCc2ccco2)O1 (stereo unspecified) | i | 2.19
CCc1ccc(NC(=O)c2noc3c2CCC3)cc1 | i | 0.56
CC(=O)NS(=O)(=O)c1ccc(NC(=O)c2cc3c(=O)n4ccccc4nc3s2)cc1 | i | -0.05
CCOc1ccc(N(CC(=O)NCc2ccccc2C)S(C)(=O)=O)cc1 | i | -1.52
O=c1[nH][nH]cc1C=NCc1cccc(C(F)(F)F)c1 | i | 0.34
CN(Cc1ccccc1)c1ccc2nnc(-c3ccccc3)n2n1 | i | 1.64
O=C(c1ccco1)N(CCC(c1ccccc1)c1ccco1)Cc1ccco1 (stereo unspecified) | -6.76* | -0.03*

(next part)
Structure | KCNQ2 block | KCNQ2 block baseline
COCc1ccc(C(=O)N2CCCC(CCC(=O)NCc3ccccc3F)C2)o1 (stereo unspecified) | i | -0.01
CCCCCC(=O)NNC1CC(=O)N(c2ccccc2)C1=O (stereo unspecified) | i | 1.99
O=C(c1ccc(NS(=O)(=O)/C=C/c2ccccc2)cc1)N1CCCCC1 | i | 0.1
Cn1nnc(C(O)CNCc2ccc(Cl)cc2)n1 (stereo unspecified) | i | 0.25
CC(Sc1ccccc1)C(=O)NCCc1ccccc1 (stereo unspecified) | i | 0.55
COc1cc(OC)c(NC(=O)N2CCOCC2)cc1Cl | i | 0.32
CCOc1ccc(NC2c3ccccc3C(=O)N2Cc2ccc3c(c2)OCO3)cc1 (stereo unspecified) | i | -0.68
Cc1cccc(NC(=O)Cc2noc3ccccc23)c1 | i | 0.01

(continued)
Structure | KCNQ2 block | KCNQ2 block baseline
COc1ccc(C(Nc2cc(C)ccn2)c2ccc3ccc(C)nc3c2O)cc1 (stereo unspecified) | i | -1.46
O=C(CCC(=O)Nc1ccc(F)cc1)N/N=C/c1c[nH]c2ccccc12 | i | -1.53
CCOC(=O)c1c(N2C(=O)C3CC(C)=C(C)CC3C2=O)sc(C)c1C (stereo unspecified) | i | 0.41
O=C1C2C3C=CC(C4CC34)C2C(=O)N1CCCCN1CCN(c2ccc(F)cc2)CC1 (stereo unspecified) | i | 0.28
O=C(CC1SC(=NC2CCCCC2)NC1=O)Nc1ccccc1 (stereo unspecified) | i | 0.32
CCOC(=O)CSc1nnc(-c2c[nH]c3ccccc23)o1 | i | -0.88
Cc1nc(C)c(-c2ccc(SCc3ccccc3C)nn2)s1 | i | 0.26
COc1cc(CNn2nnnc2N)ccc1OCc1c(Cl)cccc1Cl | i | 0.79

Molecules listed so far that contain a COOH group (two):
Structure | KCNQ2 block | KCNQ2 block baseline
O=C(Nc1c(C(=O)O)[nH]c2ccccc12)NC1CCCCC1 | i | 0.69
C=CCC(CC=C)(C(=O)O)c1ccccc1 | i | 0.41

New compounds follow
Structure | KCNQ2 block | KCNQ2 block baseline
NNc1nc2c(Cl)c(Cl)ccc2s1 | i | 0.6
CCOCCn1c(COc2ccccc2)nc2ccccc21 | i | -0.14
CCOc1nc(C)cc(C)c1S(=O)(=O)c1cccc(C)c1 | i | -0.13
O=c1cc(-c2cccc([N+](=O)[O-])c2)[nH][nH]1 | i | -0.07
O=C(CSc1nc2ccccc2[nH]1)NC(=O)NCc1ccco1 | i | 2.66
Cn1c(CSc2ncccn2)nnc1SCC(=O)N1CCCC1 | -6.3* | 0.11*
Cc1ccc(-n2c(Cn3cnc4ccccc43)nnc2SCC(=O)O)cc1 | i | 0.91
Cc1ccccc1-n1c(SCC(=O)N/N=C/c2c(C)nn(-c3ccccc3)c2C)nc2ccccc2c1=O | i | -0.49

Following part.
Structure | KCNQ2 block | KCNQ2 block baseline
Cn1c2c(c(=O)n(C)c1=O)C(c1ccc(O)cc1)Nc1ccccc1O2 (stereo unspecified) | i | 0.54
CC(C)NC(=O)c1onc(CSc2ccc(Cl)cc2)c1C(=O)NC(C)C | i | -2.09
COc1ccc(/C=N/OCc2ccc(Br)cc2)c(OC)c1 | i | 0.59
COc1cc(C(c2sc3nc(C)nn3c2O)N2CCN(c3ccccc3)CC2)cc(OC)c1OC (stereo unspecified) | i | 0.04
COC(=O)c1ccc2c(=O)n(CC3CCCO3)c(=S)[nH]c2c1 (stereo unspecified) | i | -1.99
Cc1cccc([C@@H]2[C@@H]3C(=O)N(Cc4ccccc4)C(=O)[C@@H]3[C@]3(Cc4ccccc4)C(=O)N(c4cccc(Cl)c4)C(=O)N23)c1 | i | 0.56
CC(=O)Nc1c2c(nn1-c1ccc(C)cc1C)CSC2 | i | 0.03
CC1CC1C(=O)OCC(=O)NC(=O)NC12CC3CC(CC(C3)C1)C2 (stereo unspecified) | i | -0.9

Additional results.
Structure | KCNQ2 block | KCNQ2 block baseline
Cc1ccc2c(=O)cc(C(=O)Nc3ccc(S(=O)(=O)Nc4onc(C)c4C)cc3)oc2c1 | i | 0.1
Cc1ccc(Cl)cc1NC(=O)c1ccccn1 | i | 0.06
CC(C)=CCc1c(O)ccc(C2COc3c(CC=C(C)C)c(O)cc(O)c3C2=O)c1O (stereo unspecified) | i | 0.17
Cc1c(CCC(=O)O)c(=O)oc2cc3occ(-c4ccc(Cl)cc4)c3cc12 | i | 1.4
Nn1c(Cc2cccc3ccccc23)nnc1SCc1c(F)cccc1Cl | i | -0.06
CC(C)C(C(=O)NCc1ccco1)N(C(=O)CNS(=O)(=O)c1ccccc1)C1CCCC1 (stereo unspecified) | i | 1.38
CCCCCc1ccc(CC(=O)O)cc1 | i | -0.36
O=C(NCCc1ccccc1)c1nc(CS(=O)(=O)c2ccc(Cl)cc2)no1 | i | -1.24

Carrying on.
Structure | KCNQ2 block | KCNQ2 block baseline
c1ccc2sc(NC3=NCN(CC4CCCO4)CN3)nc2c1 (stereo unspecified) | i | 1.78
O=C(O)CN(CCc1ccccc1)S(=O)(=O)c1ccccc1 | i | 0.06
COc1ccccc1CN1CC(C(=O)NCc2nccn2C)CCC1=O (stereo unspecified) | i | -1.56
O=C1CN(C(=O)c2ccccc2)c2ccccc2N1 | i | -0.67
COCCOC(=O)c1sc(=S)n(CCOC)c1N | i | -0.36
COc1cc(CC(=O)OCC(=O)NC2CC2)cc(OC)c1OC | i | 1.45
O=[N+]([O-])c1ccc(N2CCC(O)CC2)nc1 | i | -2.48
C=CCn1c(SCC(N)=O)nnc1-c1cnccn1 | i | -0.54

(further entries)
Structure | KCNQ2 block | KCNQ2 block baseline
O=C1NN=C(CSc2n[nH]c(=S)s2)CS1 | i | 0.57
CCOC(=O)CN1NC2(CCCCC2)NC1=S | i | 0.24
O=C(Nc1nc2ccc(Oc3ccccc3)cc2s1)c1cc([N+](=O)[O-])ccc1N1CCOCC1 | i | -1.44
COc1ccc(C(=O)N2CCCc3ccccc32)cc1Br | i | -2.25
C[C@H](NC(=O)c1ccc(C(C)(C)C)cc1)C(=O)N1CCC2(CC1)NCCc1[nH]cnc12 | i | -0.3
N#Cc1c(NC2CCCCC2)nc(-c2ccco2)c2c1CCCC2 | -7.05* | 0.19*
CC(NS(=O)(=O)c1ccccc1)C(c1cccs1)N1CCN(c2ccccc2)CC1 (stereo unspecified) | i | -0.17
CCCCOc1ccc(C2=CSC3=NCCN23)cc1[N+](=O)[O-] | i | 1.64

(listing goes on)
Structure | KCNQ2 block | KCNQ2 block baseline
COC(=O)[C@H](CCSC)NC(=O)NCc1ccc(S(N)(=O)=O)cc1 | i | 0.77
N#CCSc1nnc(-c2ccc(S(=O)(=O)N3CCOCC3)cc2)n1CC1CCCO1 (stereo unspecified) | i | -0.22
CCOc1ccc(C(NC(=O)c2ccco2)c2ccc(OC)c(OC)c2)cc1 (stereo unspecified) | i | 2.77
O=C(NN1C(=O)c2ccccc2C1=O)C1C2CCCCC21 (stereo unspecified) | i | -0.72
Cc1ccc(-n2cc3c(-c4cccc(Br)c4)nnc(C)c3n2)cc1 | i | -1.22
COCCNC(=O)CSc1nc2ccccc2c2nc(C)nn12 | i | -0.06
CC(=O)Nc1ccc(N/C=C/C(=O)c2ccc(Br)cc2)cc1 | i | -0.02
COc1ccc(C2C3=C(CCCC3=O)Nc3ccc4ncccc4c32)cc1OC (stereo unspecified) | i | -0.01

Profiles, looked up by structure.
O=C(NN1C(=O)c2ccccc2C1=O)C1C2CCCCC21 (stereo unspecified) reads KCNQ2 block: i; KCNQ2 block baseline: -0.72
Cc1ccc(-n2cc3c(-c4cccc(Br)c4)nnc(C)c3n2)cc1 reads KCNQ2 block: i; KCNQ2 block baseline: -1.22
COc1ccc(C2C3=C(CCCC3=O)Nc3ccc4ncccc4c32)cc1OC (stereo unspecified) reads KCNQ2 block: i; KCNQ2 block baseline: -0.01
